HCMV UL50-53 inh: inhibitors of HCMV UL50-UL53 nuclear egress complex interaction; AID 1918969; actives 0.15% (n = 190,000); HTRF UL50-UL53 interaction, normalized percent inhibition; inhibition, % (concentration not given with the values);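 active = both replicates at 50% or more, plus weaker picks with an unusually low signal ratio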;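 also: stock transfer was 100 nL into about 20 µL; 0% = negative control wells and 100% = wells with untagged competitor protein; inactives centre near -12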
Sa growth 42C: blocks Staphylococcus aureus growth; S. aureus RN4220 growth, OD600, 20 h, 42 °C; stronger effect = lower value; actives 0.53% (n = 170,000); relative growth, % (test concentration not listed);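 active = growth at 42 °C up to 50% and 20 or more points under that at 30 °C, or under 10% at both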;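 also: 300 nL library stock went into each well; scaled to the means of positive and negative controls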
GIV Gai3 FP: GIV-Galpha-i interaction inhibition | P08753 | Galpha-i3/FITC-GIV peptide fluorescence polarization, 90 min; stronger effect = lower value; scaled: aluminum fluoride 0%, vehicle 100% | actives 0.42% (n = 210,000) | percent of control (FP), % (test concentration not listed) | AID 1224905;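 active = replicate mean at 85% of control or lower, very high polarization wells dropped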;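 also: wells of about 15 µL received 100 nL stock; the first replicate is given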
Target sequence (P08753 whole entry, looked up): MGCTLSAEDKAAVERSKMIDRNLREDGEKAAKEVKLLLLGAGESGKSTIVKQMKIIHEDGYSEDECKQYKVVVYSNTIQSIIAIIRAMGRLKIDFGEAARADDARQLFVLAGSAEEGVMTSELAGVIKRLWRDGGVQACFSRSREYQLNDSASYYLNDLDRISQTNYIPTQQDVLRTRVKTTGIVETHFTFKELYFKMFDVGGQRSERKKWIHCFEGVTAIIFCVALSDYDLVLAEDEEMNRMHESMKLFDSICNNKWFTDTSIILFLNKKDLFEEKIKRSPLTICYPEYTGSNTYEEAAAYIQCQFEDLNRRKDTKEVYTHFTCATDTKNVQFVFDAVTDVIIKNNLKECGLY
Sa growth 42C second temp: also measured in Sa growth 42C; calls as there; relative growth, %; measured here: growth at 30 °C;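 optical density after 20 h as mean of two plates; 100% = untreated growth and lower means inhibition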
Numbers without * were called inactive; / = no result given; & = joins results of further samples.

SMILES	HCMV UL50-53 inh	Sa growth 42C	Sa growth 42C second temp	GIV Gai3 FP
C[C@@H](C(=O)Nc1ccccc1N1CCOCC1)N1C(=O)C2CC=CCC2C1=O (stereo partly drawn)	-13	98	99	/
c1ccc(CNc2ncnc3[nH]ncc23)cc1	/	84	88	105
O=C(Nc1cccc(-c2nc3ccccc3c(=O)o2)c1)c1ccccc1Br	/	97	87	99
COc1ccc2c(c1)c1c(c(=O)n(-c3ccccc3)c(=O)n1CC(=O)NCCC1=CCCCC1)n2C	/	106	84	104
O=C(O)c1cccc(S(=O)(=O)N2CCCC2)c1	3	102	94	103
CC1=C(C(=O)Nc2ccc(Br)cn2)C(c2cc([N+](=O)[O-])ccc2Cl)C2=C(CC(C)(C)CC2=O)N1 (stereo not drawn)	-25	/	/	104
CN(c1ccccc1)S(=O)(=O)c1ccc(NC(=O)c2cc(=O)c3ccccc3o2)cc1	-20	112	87	100
O=C(O)C1CCN(C(=O)c2ccc(F)cc2F)CC1	-3	99	94	100
Cn1nc(C(=O)N2CCCC2)c2ccccc2c1=O	/	86	83	99
CCOc1ccccc1Nc1sc(C(=O)c2ccccc2)c(N)c1C(=O)Nc1ccccc1	/	98	79	113
Cn1cc(S(=O)(=O)c2ccccc2)c(=O)c2cc(F)c(N3CCN(c4ccccc4)CC3)cc21	-8	104	100	107&101
CN(C)C(N)=NCCC[C@H](N)C(=O)O	-23	/	/	107
CCN(C(=O)Nc1ccccc1)c1ccccc1	0	127	89	/
Cc1ccc2c(c1)-c1c(cnn1CC(=O)N1CCN(c3cc(Cl)ccc3C)CC1)CO2	-30	100	86	100
CCCn1c(C(=O)OCC)cc2sccc21	0	112	100	103
Nc1ccc(N2CCOCC2)c(N)c1	23	100	65	95
O=C(/C=C/c1ccccc1)Sc1nc2ccccc2o1	-12	110	80	/
Cc1cc(O)c(Cc2c(O)cc(C)n(C)c2=O)c(=O)n1C	-22	89	88	97
O=C(COc1ccc2oc3c(c2c1)CCCC3)Nc1ccc(Cl)cc1	-21	110	85	98
NC(=O)c1ccccc1NC(=O)c1cccnc1N1CCCC1	-28	95	101	102
Cc1ccc(NC(=O)c2nnc(C(=O)NCc3c(C)nn(C)c3C)s2)cc1	-4	/	/	106
CCn1cc(C(=O)NC2CCCCC2)c(=O)c2cc(S(=O)(=O)N3CCCC3)ccc21	0	97	97	104
COc1ccc(-c2nnc(SCc3ccc(C#N)cc3)o2)cc1	-11	/	/	99
CC(=O)Nc1nc(-c2ccc(S(=O)(=O)N3CCOCC3)cc2)cs1	-28&-1	95	88	103&103
S=C1NC2(CCCC2)NN1c1ccccc1	-20	83	86	98

Further structures.
SMILES	HCMV UL50-53 inh	Sa growth 42C	Sa growth 42C second temp	GIV Gai3 FP
C=C1SC(Nc2cccc(C)c2)=NC1(C)C	/	88	90	99
O=C(Nc1ccc2c(c1)OCCO2)c1ccc(-c2noc(C3CC3)n2)cc1	-19	/	/	105
CCOC(=O)c1ccc(NC(=O)CC2C(=O)N(c3ccc(F)cc3)C(=O)N2Cc2cccs2)cc1 (stereo not drawn)	/	86	73	101
Cc1ccc(C(=O)Cn2nc3n(C(C)C)c(=O)c4ccc(C(=O)NCC(C)C)cc4n3c2=O)cc1	-12	/	/	108
CCCc1cc(C(=O)NC(C)C)no1	-2	81	96	100
CCOC(=O)C1CCN(C(=O)c2cccc(C3CCCN(C(=O)NC(C)C)C3)c2)CC1 (stereo not drawn)	-20	/	/	107
CCOc1ccccc1NC(=O)c1ccc2c(c1)CCN2S(=O)(=O)c1ccc(C)cc1	-4	106	87	107
Cc1nc2ccc(NC(=S)NCCCO)cc2nc1C	-35	81	82	119
Cc1oc(-c2ccccc2)nc1Cn1c(SCc2cccc(C(F)(F)F)c2)nc2cccnc21	/	105	90	102
Cc1c(C(=O)Nc2ccccc2)sc2ncn(CC(N)=O)c(=O)c12	-10	110	91	/
COc1cc(CNc2ccc3[nH]c(=O)[nH]c3c2)ccc1OCc1ccccc1F	0	110	91	103
Cc1nnsc1C(=O)NCc1csc2ccc(Cl)cc12	-18	97	90	106
CCOC(=O)/C(C#N)=C1/C(=O)Nc2ccc(Br)cc21	-11	64	62	98
Cc1ccc(-c2c(CN3CCN(c4cccc(C(F)(F)F)c4)CC3)csc2C)cc1	/	91	93	104
CCn1c(C)c(C)c2cc(C(=O)NCc3cccs3)ccc21	-24	97	96	108
CN(C)C(=O)c1ccc2c(c1)N(CC(=O)NCc1ccccc1Cl)C(=O)C1CCCCN21 (stereo not drawn)	/	108	89	101
CCC(C(=O)NCc1ccccc1)n1ncn2c(cc3occc32)c1=O (stereo not drawn)	-30	103	82	102
Cc1cccc2c1Oc1nc(-c3cc(Cl)ccc3O)[nH]c(=O)c1C2	-14	/	/	95
COc1ccc(-c2csc(NC(=O)C(C)C)n2)cc1	-10	129	116	105
CC(=O)Nc1[nH]cc(C)c1C#N	12	/	/	107
O=C(NCC1CCCCC1)C1CCN(c2ccc3nncn3n2)CC1	-25	/	/	101
O=C(CNS(=O)(=O)c1ccccc1)N1CCN(c2ccccc2)CC1	-8	108	77	107
Cn1c(=O)n(CCN2CCOCC2)c(=O)c2c1nc1n2CCCN1c1ccc(Br)cc1	-24	/	/	100
O=C(C[n+]1ccccc1)Nc1c2c(nc3c1CCC3)CCCC2	/	84	90	102
Cc1ccccc1-n1c(-c2ccc(Br)cc2)n[nH]c1=S	-6	105	95	/

The results go on:
SMILES	HCMV UL50-53 inh	Sa growth 42C	Sa growth 42C second temp	GIV Gai3 FP
Cc1nc2ccc(S(=O)(=O)NCC(=O)N3CCc4ccccc43)cc2s1	2	100	84	103
O=C(Nc1nc2n(n1)C(c1ccccc1)C=C(c1ccc(Cl)cc1)N2)c1ccco1 (stereo not drawn)	-47	134	68	149
O=C(Nc1ccccc1F)c1oc2ccccc2c1NC(=O)C12CC3CC(CC(C3)C1)C2	12	97	98	110
CCc1ccc(C(=O)CSc2nnc(-c3nn(Cc4ccccc4)c(=O)c4ccccc34)o2)cc1	-18	92	100	/
CSC(N)=Nc1csc(C(F)(F)F)c1-c1ccccc1	-36	87	84	105
Cc1c(-c2nnc(C(=O)NCc3ccc4c(c3)OCO4)o2)oc2c(C)cccc12	-22	/	/	102
COc1ccc(-c2ccc3cnn(Cc4cccs4)c3n2)cc1	3	116	110	/
O=C(Cn1c(C(=O)N(Cc2ccco2)CC2CCCO2)cc2sccc21)c1ccccc1 (stereo not drawn)	-9	89	67	99
O=c1cc(N2CCCCC2)nc2scc(-c3ccccc3)n12	/	81	87	119
COc1cc(C2NC(=O)NC(C)=C2C(=O)OC(C)C(C)(C)C)cc(Br)c1O (stereo not drawn)	-10	/	/	102
CCn1c(C)nc2cc(C(=O)Nc3nnc(-c4ccccc4Cl)s3)ccc21	/	98	79	99
O=C(Nc1nnc(-c2ccccc2Cl)o1)c1ccc(S(=O)(=O)N2CCCC2)cc1	15	75	58	100
COC(=O)C(CC(=O)c1cccc(C)c1)c1ccc(Cl)cc1 (stereo not drawn)	0	/	/	108
O=C(Cn1nc(C(F)(F)F)c2c1CCCC2)N(Cc1ccccc1)Cc1ccccc1	/	81	95	101
N#Cc1cc2c(=O)n3ccccc3nc2n(-c2nnc(SCc3ccc(F)cc3)s2)c1=O	-59	110	82	101
Cc1ccc(NC(=O)c2nc(S(C)(=O)=O)ncc2N(Cc2ccco2)Cc2cccs2)cc1C	-9	105	91	95
O=c1[nH]c2c(s1)C(c1cccs1)C1C3CCC(C3)C1S2 (stereo not drawn)	-14	87	84	105
Nc1ccc(/C=C/C(=O)O)cc1	-7	107	91	/
COC(=O)c1sccc1NC(=O)n1ncc2ccccc21	10	/	/	103
Cc1cc(C)c2c(N)c(C(=O)Nc3ccc(Br)cc3)sc2n1	-3	/	/	95
NC(N)=NS(=O)(=O)c1ccc(N=Cc2ccc3c(c2)OCO3)cc1	-27	79	74	102
CCCN(C(=O)Nc1cn(CC(C)C)c(=O)c2ccccc12)c1ccc(F)cc1	/	117	88	100
O=C(O)CCCNc1cc(N2CCCC2)c2noc3c2c1C(=O)c1ccccc1-3	-30	107	96	111
CC1CCc2nc(NC(=O)NCCCN3CCOCC3)sc2C1 (stereo not drawn)	-17	115	91	/
CCN(CC)C(=O)Cn1c(=O)n(-c2ccc(F)cc2)c(=O)c2oc3ccccc3c21	-23	99	93	103

Next structures
SMILES	HCMV UL50-53 inh	Sa growth 42C	Sa growth 42C second temp	GIV Gai3 FP
CCN(C(=O)Cn1c(=O)n(Cc2ccccc2)c(=O)c2c1c1cc(OC)ccc1n2C)c1ccccc1	/	116	88	106
O=C(N/N=C/Cc1ccccc1)c1ccccc1O	-19	101	92	101
O=c1c2c(-c3ccccc3)ccnc2[nH]n1-c1ccccc1	-33&-44	114&99	94&99	99&97&104
CCCc1nc2ccccc2n1CC(=O)N1CCc2ccccc21	-2	119	94	/
C=CCN(C(=O)Cc1ccc(OC)cc1)c1nnc(-c2ccc(Cl)cc2)s1	/	114	80	102
C1=Cc2ccccc2Nc2ccccc21	-33	97	87	103
Cn1c(Sc2nnnn2-c2ccccc2)nnc1C(F)(F)F	25	100	101	/
O=C(CCc1nc2ccccc2c(=O)[nH]1)OCc1ccccc1	-10	110	96	/
COc1cc(OC)cc(C(=O)Nc2nc(CC(=O)NCC(C)C)cs2)c1	-3	/	/	108
O=C(/C=C/c1cn(-c2ccccc2)nc1-c1ccc(F)cc1)NCc1ccccn1	1	111	105	/
COc1ccc2cc(C(=O)CBr)ccc2c1	-18	92	68	/
COc1ccccc1-c1nnc(C2CCN(S(=O)(=O)c3c(C)cc(C)cc3C)CC2)o1	-13	/	/	103
COc1ccc(NC(=O)Cn2c(=O)n(-c3ccccc3)c(=O)c3c4c(sc32)CCCC4)c(OC)c1	-19	92	92	104
CC(=O)N1CCN(c2csc3ccc(Br)cc3c2=O)CC1	/	89	80	102
COC(=O)c1ccc(/C=[N+](/[O-])C2(C)CCCCC2=O)cc1 (stereo not drawn)	-72	103	99	101
Cc1cc(C)c(S(=O)(=O)Nc2nnc(C(F)(F)F)s2)c(C)c1	-6	57	66	96
CCN(C(=O)c1ccc(Cl)cc1Cl)c1nnc(-c2ccncc2)s1	-8	103	86	/
CCN(C(=O)CCc1c(C)[nH]c(=O)c(C#N)c1C)c1nc2c(C)cccc2s1	4	103	102	/
CCCCNC(=O)C1CCC(CNS(=O)(=O)c2ccc(NC(C)=O)cc2)CC1 (stereo not drawn)	/	93	89	101
O=C(Cn1c(=O)n(-c2ccc(CC(=O)NC3CC3)cc2)c(=O)c2ccccc21)Nc1ccccc1F	-3	/	/	98
O=C(c1ccc2c(c1)CCCN2S(=O)(=O)c1ccccc1)N1CCN(c2ccccc2)CC1	2	/	/	103
COc1ccc(CCn2cc3c(c2-c2ccccc2)c(=O)n(C)c(=O)n3C)cc1OC	-13	100	86	104
N#Cc1ccc(CSc2ccc3c(c2)OCCO3)cc1	7	104	94	/
CCC1Sc2cc(S(=O)(=O)Nc3cccc(Cl)c3)ccc2NC1=O (stereo not drawn)	/	40	44	103
COc1ccc(C=Nc2ccc(Br)cc2)cc1	-4	126	73	/

Five entries from above, with bars between the fields:
mol | HCMV UL50-53 inh | Sa growth 42C | Sa growth 42C second temp | GIV Gai3 FP
CC(=O)N1CCN(c2csc3ccc(Br)cc3c2=O)CC1 | / | 89 | 80 | 102
CCCCNC(=O)C1CCC(CNS(=O)(=O)c2ccc(NC(C)=O)cc2)CC1 (stereo not drawn) | / | 93 | 89 | 101
CCN(C(=O)c1ccc(Cl)cc1Cl)c1nnc(-c2ccncc2)s1 | -8 | 103 | 86 | /
CCC1Sc2cc(S(=O)(=O)Nc3cccc(Cl)c3)ccc2NC1=O (stereo not drawn) | / | 40 | 44 | 103
COc1ccc(NC(=O)Cn2c(=O)n(-c3ccccc3)c(=O)c3c4c(sc32)CCCC4)c(OC)c1 | -19 | 92 | 92 | 104

New compounds follow
SMILES	HCMV UL50-53 inh	Sa growth 42C	Sa growth 42C second temp	GIV Gai3 FP
CCCCCn1c(=O)c2sccc2n2c(CCC(=O)N3CCN(c4ccccn4)CC3)nnc12	-18	/	/	94
CCOC(=O)C1CCN(c2cc(NCC(=O)O)c3c4c(onc24)-c2ccccc2C3=O)CC1	-131	90	54	-57*
O=C(O)CNC(=O)C12CC3CC(CC(C3)C1)C2	-12	84	91	/
CC(NC(=O)CSc1nnc(COc2ccccc2)o1)c1ccccc1 (stereo not drawn)	-21	96	93	97
O=C(Nc1ccccc1)C1=C(N2CCOCC2)/C(=C\c2cccnc2)CC1	-1	107	102	/
CSc1ccc(S(=O)(=O)Nc2ccc3c(c2)NC(=O)CC3)cc1	-37	84	80	105
CCCCN(C(C)=O)c1c(N)n(CCC)c(=O)[nH]c1=O	-10	70	85	/
O=C(OCC(=O)N1CCCC1)c1ccc(Cl)nc1	-17	93	89	/
COc1ccc(-n2c(SCC(=O)c3ccc(O)c(O)c3)nc3ccsc3c2=O)cc1	-32	31	16	101
O=C(Nc1cccc(-c2noc(C3CC3)n2)c1)C1CC(=O)N(C2CCCC2)C1 (stereo not drawn)	-17	/	/	99

Source: PubChem BioAssay (ICCB-Longwood Screening Facility, Harvard Medical School)
